# VDR inhibitor – Inhibitors of the vitamin D receptor (VDR): qHTS; Vitamin D3 receptor (Homo sapiens), P11473; VDR-SRC2-3 peptide fluorescence polarization, 2 h; Potency, µM, without a hit: max response, negative = inhibition, actives largely listed as inhibitors; 400,000 compounds, 0.93% hits; AID 504847, 2011; active means well fitted inhibition curve with a large enough effect; inconclusive means small, poorly fitted or top-dose-only effect, or another doubt; inactive means no such curve, though single readings can be large or run the other way; further: series mostly up to about 120 µM
# Target sequence (P11473 whole entry, looked up): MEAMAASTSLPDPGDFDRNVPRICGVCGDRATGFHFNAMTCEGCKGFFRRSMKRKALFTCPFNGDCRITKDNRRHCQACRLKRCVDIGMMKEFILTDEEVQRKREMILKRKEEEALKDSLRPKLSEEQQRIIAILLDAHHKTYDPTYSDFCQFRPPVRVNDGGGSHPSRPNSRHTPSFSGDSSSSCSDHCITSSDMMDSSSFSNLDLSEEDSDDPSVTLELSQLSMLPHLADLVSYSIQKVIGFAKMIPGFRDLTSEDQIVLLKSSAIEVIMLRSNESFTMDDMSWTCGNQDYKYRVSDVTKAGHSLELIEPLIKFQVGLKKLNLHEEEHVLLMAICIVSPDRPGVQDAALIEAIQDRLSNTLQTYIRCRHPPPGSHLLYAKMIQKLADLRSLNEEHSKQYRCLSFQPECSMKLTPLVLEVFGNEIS
#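 Reagent solutions, kept cold and dark, are dispensed first; compounds are then pinned in at 23 nl, plates briefly spun, and incubated 2 h at ambient temperature. Inhibition of VDR–SRC2-3 peptide binding is read by fluorescence polarization.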
# Active calls of the source: *; ? = inconclusive; & = joins results of further samples. On the % scale 0 is the no-effect control and ±100 the full control effect; potency means the concentration at half of the fitted maximal effect.
VDR inhibitor	structure
-10%	CC(=O)c1c(C)[nH]c(C(=O)COC(=O)CCOc2ccc(C)cc2)c1C
-22%	O=C(c1csnn1)N1CCC2(CC1)CN(c1ccccc1)C2
-16%	CCCCCCNCc1c(F)cccc1Cl
-22%	COc1ccc(S(=O)(=O)Nc2ccc(S(=O)(=O)N3CCCCC3)cc2)cc1C
21%	CCOC(=O)c1c(C)[nH]c(C(=O)OCC(=O)N2CCN(S(=O)(=O)c3ccccc3)CC2)c1C
-28%	Cc1cc(F)ccc1NC(=O)CCc1c(C)nn(-c2ccc(N3CCCCC3)nn2)c1C
13%	CCOC(=O)c1oc2ccccc2c1COC(=O)CNC(=O)c1ccc(C)cc1
-3%	COc1ccc(C2/C(=C(/O)c3ccccc3)C(=O)C(=O)N2c2ccccn2)cc1 (centres undefined)
-8%	Cc1ccc(N2CC(C(=O)Nc3ccc(S(=O)(=O)Nc4nccc(C)n4)cc3)CC2=O)cc1 (centres undefined)
4%	CN(C(=O)CSc1nncn1-c1ccccc1)C1CCS(=O)(=O)C1 (centres undefined)
12%	O=c1ccc2cc(S(=O)(=O)NCc3ccc(Cl)cc3)ccc2[nH]1
-17%	Cc1nnc(SCC(=O)N/N=C/c2ccc(-c3ccc(C)c(Cl)c3)o2)s1
-7%	Nc1ncnc2nc(Cl)[nH]c12
5%	COC(=O)c1sc(N2C(=O)c3oc4cc(C)c(C)cc4c(=O)c3C2c2ccccc2F)nc1C (centres undefined)
?	O=C(NCc1ccccc1)Nc1cccn(Cc2cccc(F)c2)c1=O
7%	Cn1c(=O)[nH]c(=O)c2c1nc(N1CCCCC1)n2CCSc1nc2ccccc2o1
-15%	O=C(CCCCCCCC(=O)NNC(=O)Nc1ccccc1)NNC(=O)Nc1ccccc1
3%	CC(=O)Nc1cccc(NC(=O)Cc2csc(COc3cccc(C)c3)n2)c1
0%	COc1ccc(-n2cc3ccc([N+](=O)[O-])cc3n2)cc1
-9%	O=C(Nc1ccc(Cl)cc1)C(NS(=O)(=O)c1cccs1)c1ccccc1 (centres undefined)

# Structural class, the entries above with two or more sulfur atoms
VDR inhibitor	structure
-22%	COc1ccc(S(=O)(=O)Nc2ccc(S(=O)(=O)N3CCCCC3)cc2)cc1C
4%	CN(C(=O)CSc1nncn1-c1ccccc1)C1CCS(=O)(=O)C1 (centres undefined)
-17%	Cc1nnc(SCC(=O)N/N=C/c2ccc(-c3ccc(C)c(Cl)c3)o2)s1
-9%	O=C(Nc1ccc(Cl)cc1)C(NS(=O)(=O)c1cccs1)c1ccccc1 (centres undefined)

# Returning to the listing; the 6 compounds before the break are reprinted first.
VDR inhibitor	structure
?	O=C(NCc1ccccc1)Nc1cccn(Cc2cccc(F)c2)c1=O
7%	Cn1c(=O)[nH]c(=O)c2c1nc(N1CCCCC1)n2CCSc1nc2ccccc2o1
-15%	O=C(CCCCCCCC(=O)NNC(=O)Nc1ccccc1)NNC(=O)Nc1ccccc1
3%	CC(=O)Nc1cccc(NC(=O)Cc2csc(COc3cccc(C)c3)n2)c1
0%	COc1ccc(-n2cc3ccc([N+](=O)[O-])cc3n2)cc1
-9%	O=C(Nc1ccc(Cl)cc1)C(NS(=O)(=O)c1cccs1)c1ccccc1 (centres undefined)
-5%	CCN1CCN(C(c2ccc(C)cc2)c2c(O)cc(C)n(Cc3ccco3)c2=O)CC1 (centres undefined)
-5%	COc1ccc(C(=O)Nn2c(C)nc3ccccc3c2=O)cc1
9%	Clc1cccc2sc(N3CCCCC3)nc12
-26%	COc1ccc(S(=O)(=O)N2CCOCC2)cc1NC(=O)c1c(-c2ccccc2)noc1C
4%	CC(C)CC(=O)NC(=S)Nc1ccccn1
3%	COc1ccc(NC(=O)/C=C/c2ccc(Br)o2)cn1
5%	O=C(c1cccnc1)N1CCC(Oc2ccc(C(=O)N3CCCC(O)C3)cc2)CC1 (centres undefined)
-8%&-4%	COc1ccc(CNC(=O)c2cc3cc(OC)ccc3oc2=O)cc1
-11%	CCN(CC)c1ccc(NC(=O)CSc2nc3ccccc3c(=O)n2-c2cc(S(=O)(=O)N(C)C)ccc2C)cc1
?	CCC(C)(C)NC(=O)CN(C(=O)CCC(=O)Nc1nccs1)c1ccc(C)cc1
-2%	O=C(CSc1nc2ccccc2c(=O)n1CC1CCCO1)NCC1CCCO1 (centres undefined)
-11%	CNS(=O)(=O)c1ccc(NC(=O)c2ccccn2)cc1
13%	Nc1c(C(=O)NCc2ccccc2)nnn1Cc1ccccc1
-14%	O=C(COc1ccc(C(=O)c2ccccc2)cc1)NCC1CCCCC1
-3%	Cc1ccc(S(=O)(=O)NCCSCc2ccco2)cc1
11%	Cc1cc(Cl)c(S(=O)(=O)N2CCN(c3ccccn3)CC2)cc1OCC(N)=O
-28%	COc1ccc(N(C(C)C(=O)N/N=C/c2ccc(OC)c(OC)c2)S(C)(=O)=O)cc1 (centres undefined)
12%	Cc1ccc(C(C(=O)NC(C)(C)C)N(CC2CCCO2)C(=O)Cn2nnc(-c3ccc(C)o3)n2)cc1 (centres undefined)
11%	O=C(COc1ccccc1)OCc1cc(=O)n2nc(C3CC3)sc2n1
-9%	CC(=O)NC(NC(=S)Nc1ccc(N=Nc2ccccc2)cc1)C(Cl)(Cl)Cl (centres undefined)
14%	NS(=O)(=O)c1cccc(NC(=O)CSc2ccccn2)c1
-8%	Cc1ccc(NC(=O)CCNC(=O)Cn2cnc3ccccc3c2=O)cc1F
-9%	FC(F)(F)Oc1ccc(NC(=S)Nc2ccc(OC(F)(F)F)cc2)cc1
6%	COc1ccc(CCNC(=O)C(=O)NCCCN2CCOCC2)cc1
-14%	CC(C)(C)C(=O)Nc1ccccc1C(=O)N1CCCC1
0%	COc1ccc(-n2c(=O)c(-c3cn(C)c4ccccc34)nc3cnc(N4CCNCC4)nc32)cc1
-1%	Nc1nc(SCC(=O)N2N=C(c3ccc(Cl)cc3)CC2c2ccco2)n[nH]1 (centres undefined)
-17%	Cc1ccc(S(=O)(=O)Oc2ccc(/C=N/N=C3/NC(=O)C(CC(=O)O)S3)cc2)cc1[N+](=O)[O-] (centres undefined)
-5%	COc1cccc(CC(=O)OCC(=O)NC(C)c2ccc(F)cc2)c1 (centres undefined)
22%	Cn1cc(CN(Cc2ccccn2)C[C@@H]2CCC(=O)N2)c(-c2ccccc2F)n1
-7%	CCc1ccccc1NC(=O)C1CCCN(c2ncnc3onc(C)c23)C1 (centres undefined)
15%	Cc1cccc(C)c1NC(=O)/C(C#N)=C/c1cccs1
8%	CCOC(=O)C1CN(C(C)(C)C)C(=O)C1=O (centres undefined)
?	CCCn1c(SCC(=O)NC2CCCCC2)nnc1-c1ccco1
5%	CCN(c1ccccc1)S(=O)(=O)c1ccc(Cl)c(NC(=O)CNC(C)c2ccccc2)c1 (centres undefined)
-4%	Cc1ccc(C(=O)OCC(=O)c2ccc(Br)cc2)cc1S(=O)(=O)N1CCOCC1
-15%	C=CCc1c(C)c(C#N)c2nc3ccccc3n2c1NCCN(C)C
20%	C=CCn1c2ccccc2c2nnc(SCCN3CCOCC3)nc21
17%	COc1ccc(C(=O)N(C)Cc2ccc(OC)c(OC)c2OC)cc1S(=O)(=O)N1CCOCC1
7%	CC(=O)c1ccc(NC(=O)c2noc3c2CCCCC3)cc1

# Among those listed so far, these have a cyano group.
VDR inhibitor	structure
15%	Cc1cccc(C)c1NC(=O)/C(C#N)=C/c1cccs1
-15%	C=CCc1c(C)c(C#N)c2nc3ccccc3n2c1NCCN(C)C

# Next entries.
VDR inhibitor	structure
-9%	COc1ccc(C(=O)N(C)C2CCCCC2)cc1OC1CCN(C(C)C)CC1
1%	Cc1ccc2nc(NC(=O)c3nc(SCc4ccccc4F)ncc3Cl)sc2c1
-2%	COC(=O)C(CCSC)NC(=O)/C=C/c1ccc(OC)cc1 (centres undefined)
-1%	COc1ccc(C(=O)NC(=S)Nc2ccccc2N2CCCCC2)cc1[N+](=O)[O-]
-6%	CC1Cc2ccccc2N1C(=O)c1ccc2nccnc2c1 (centres undefined)
-9%	O=[N+]([O-])c1cccc(S(=O)(=O)Nc2ccc(Cc3ccncc3)cc2)c1
29%	Cn1nnnc1SCc1ccc(C(=O)Nc2ccc(Br)cc2)cc1
7%	O=C(NC(=S)Nc1ccc(Cl)cc1Cl)C1CC1
-3%&7%	CC(C)c1ccc(OCC(=O)NC(Cc2c[nH]c3ccccc23)C(=O)O)cc1 (centres undefined)
-3%	CCOC(=O)C(NC(=O)CC)(Nc1ccc(S(=O)(=O)Nc2ncccn2)cc1)C(F)(F)F (centres undefined)
-7%	COc1ccc(C2CC(=O)Nc3c2c(C)nn3-c2nncc(-c3ccccc3)n2)c(OC)c1OC (centres undefined)
-17%	Cc1ccc(S(=O)(=O)NN)c(C)c1N1CCCC1=O
7%	O=C(NCc1ccccc1)c1ccc2c(=O)n(CC3CCCO3)c(=S)[nH]c2c1 (centres undefined)
-10%	O=C(CSCc1ccccc1)N=Nc1c(O)[nH]c2ccccc12
0%	CC(C)CCOC(=O)c1ccc(N(C)C)cc1
-4%	Cc1ccc(NC(=S)N2CCN(C(=O)c3ccccc3)CC2)c(C)c1
5%	CCN(CC)c1ccc(NC(=O)CN2CCN(CC(=O)Nc3ccc(F)cc3)CC2)cc1
2%	Cc1cccc(CCNC(=O)C2CCN(S(=O)(=O)N3CCOCC3)CC2)c1
1%	O=C(NCc1ccc2c(c1)CCN2C(=O)c1ccc(Cl)cc1)c1ccco1
19%	CC(=O)c1c(C)[nH]c(C(=O)Nc2nc(-c3ccccc3)c(C)s2)c1C
-14%	N#Cc1ccc(N2CCN(C(=O)c3cccs3)CC2)c(F)c1
1%	Nc1cc(S(=O)(=O)N2CCCCC2)ccc1Oc1ccc(Cl)cc1
0%	CCOC(=O)c1c(N)sc(C(=O)N2CCOCC2)c1C
21%	CC[C@]12c3[nH]c4cc(CCC(=O)N(C)C)ccc4c3CCN1C(=O)[C@@H](CC(=O)NCCc1ccccn1)C[C@@H]2C(=O)N1CCN(C(=O)c2ccco2)CC1
18%	Cc1csc(-c2cnn(-c3ccccc3)c2NC(=O)c2ccccc2)n1
9%	CC(Sc1nnc(NC2CCCCC2)s1)C(=O)Nc1ccc2c(c1)C(=O)c1ccccc1C2=O (centres undefined)
4%	O=C(Cn1cnc2c(cnn2-c2ccccc2)c1=O)Nc1ccc(S(=O)(=O)N2CCOCC2)cc1
-3%	CC(=O)Nc1ccc(C(=O)COC(=O)C2CC2C)c(F)c1 (centres undefined)
-5%	COc1ccc(C(=O)NC2CC3CCCC(C2)N3CC(C)C)cc1OC (centres undefined)
8%	O=C(Nc1nc2n(n1)C(c1ccc(F)cc1)C=C(c1ccc(Cl)cc1)N2)c1ccc([N+](=O)[O-])cc1 (centres undefined)
-11%	CC(C)(C)C(=O)N1CCN(c2ccc(Cl)cc2[N+](=O)[O-])CC1
-5%	CCn1c(C)c(C(C)=O)c(N2CCC(C(N)=O)CC2)nc1=S
4%	Cc1occc1C(=O)N/N=C/C=C/c1ccccc1
-3%	CC(C)NC(=O)CSc1nc2ccccc2c(=O)n1Cc1ccc(C(=O)NC(C)C)cc1
-4%	Cc1ccc(CSc2nc3c(c(N(C)C)n2)CCCC3)cc1
5%	CCn1c(SCC(=O)Nc2ccccc2C(=O)OC)nnc1-c1ccc(N)cc1
-12%	CCOc1cccc(CN2CCCC(C(=O)c3cccc(C(F)(F)F)c3)C2)c1O (centres undefined)
13%	COc1ccc(NC(=O)CSCC(=O)NCc2cccc(C(F)(F)F)c2)cc1
-9%	O=C(c1cnn2c(C(F)F)cc(-c3ccccc3)nc12)N1CCN(Cc2ccc3c(c2)OCO3)CC1
?	CCN1CCN(C(c2cccnc2)c2cc(Cl)c3cccnc3c2O)CC1 (centres undefined)
5%	c1cncc(-c2cnc3ccccc3c2)c1
-7%	Cc1ccc(-n2c(C)cc(/C=N\NC(=O)CC(=O)NC(C)C)c2C)cc1
-2%	Cc1cc(C(=O)Nc2ccccc2C(=O)O)ccc1NC(=O)COc1cccc(C)c1C
?	O=C(O)C1CCN(c2ccc(Cl)nn2)CC1
2%	CCOc1ccccc1CNC(=O)c1ccc(Cn2c(=O)c3cccn3c3cccnc32)cc1
-17%	CCN(CC)CCN1c2ccccc2Sc2ccccc21
-4%	CC(=O)Oc1cccc(N2C(=O)C3CC=CCC3C2=O)c1 (centres undefined)
7%	COc1cc(C2C(C(=O)/C=C/c3ccccc3)=C(O)C(=O)N2c2ccccn2)ccc1O (centres undefined)
-14%	COc1ccc(CCNC(=O)CSc2nc3ccccc3nc2Cc2ccc(C)cc2)cc1OC
2%	CCc1ccc(-c2cc(C(=O)N/N=C/c3ccccn3)[nH]n2)cc1
?	Cc1ccc(S(=O)(=O)N2CCC(C(=O)NNC(=O)c3ccccc3O)CC2)cc1C
-17%	CCOc1ccc2nc(N3CCCC(C(=O)NCCCN4C(C)CCCC4C)C3)sc2c1 (centres undefined)
-6%	Cc1cccc(C)c1NC(=O)CNC(=O)C(C)N(C)CC(=O)Nc1ccc(F)cc1 (centres undefined)
1%	CCOc1ccc(Nc2c(S(=O)(=O)c3ccccc3)cnc3ccc(CC)cc23)cc1
-2%	CCOCCCNC(=O)C1CCCN(S(=O)(=O)c2cccc3nsnc23)C1 (centres undefined)
-12%	CC(C)CO/C(=N/S(=O)(=O)c1ccccc1)c1ccccc1
-7%	CN(CC1CCCN(CCc2ccc(Cl)cc2)C1)C(=O)CC(F)(F)F (centres undefined)
-3%	ON1C2CCCCC2N(O)C1c1ccccc1C(F)(F)F (centres undefined)
-1%	COc1cccc(C(=O)N2CCN(C(=O)C3COc4ccccc4O3)CC2)c1 (centres undefined)
-9%	CC(C)(C)[C@H]1C=C(C(=O)NCc2nc3ccccc3[nH]2)O[C@@H](OCCCCO)C1
-9%	O=C(NCc1cccnc1)Nc1ccc(Cl)cc1Cl

# Some values from the list:
# ON1C2CCCCC2N(O)C1c1ccccc1C(F)(F)F (centres undefined) | VDR inhibitor = -3%
# CCCCCCNCc1c(F)cccc1Cl | VDR inhibitor = -16%

# Not all compounds are listed. The share of hits here may be higher or lower than overall.
